Source: PubChem BioAssay (National Center for Advancing Translational Sciences (NCATS))
PINK1 expr mod = changes PINK1 expression; PINK1 immunofluorescence, high-content cytometry, 24 h; Potency, µM (top dose mostly 76.6 µM), for inactives: at the highest dose activation (PINK1 increase), most hits filed as activators; hit rate 0.2% among 410,000; active = well fitted activation curve with a large enough effect; inconclusive = small, poorly fitted or top-dose-only effect; inactive = flat fitted curve, though single readings scatter; cell line not stated here;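 also: potency is read from the fitted curve at half-maximal effect; % of control where 0% means no effect; nearly all actives have a fitted effect of over 65% in size; a mitochondrial uncoupler was the plate control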
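Fluorescence from anti-PINK1 antibody, together with nuclear and cell stains, was scanned on a laser-scanning cytometer. Before staining, stable-line cells were incubated 24 hours with compounds at 5 concentrations; primary antibody 12 h at 10 degrees C.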
Sfp inh = blocks B. subtilis Sfp PPTase activity | Q9F4F7 | Biochemical Sfp PPTase activity, qHTS | Potency, µM, inactives show max response, negative = inhibition, most hits filed as inhibitors | hit rate 3.5% among 310,000 | AID 1490; active = well fitted inhibition curve with a large enough effect; inconclusive = small, poorly fitted or top-dose-only effect, or another doubt; inactive = no such curve, though single readings can be large or run the other way;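 also: the enzyme is Sfp with the accession as filed and its product quenches rhodamine fluorescence; potency is read from the fitted curve at half-maximal effect; 0% = enzyme reaction without inhibitor and -100% = no enzyme wells; top concentration of the series not given in the record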
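Sfp 15 nM + cpd, 15 min RT; start w/ rhodamine-CoA 5 uM, BHQ-2-YbbR 12.5 uM (final); 50 mM Hepes pH 7.6, 10 mM MgCl2, 0.01% NP-40, 0.01% BSA; read 525/598 nm at 0 and 30 min.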
ClpP mod = qHTS Assay for Activators of ClpP; ATP-dependent Clp protease proteolytic subunit (Bacillus subtilis (strain 168)), P80244; purified B. subtilis ClpP, FRET peptide cleavage, 20 min; Potency, µM (highest dose often 57.5 µM), inactives show top-dose activity change, negative = active; hit rate 1.9% among 340,000; active = well fitted falling curve with a large enough effect; inconclusive = small, poorly fitted or top-dose-only effect; inactive = no such curve, though single readings can be large or run the other way; also: potency is read from the fitted curve at half-maximal effect; the source files actives as falling curves though it sought activators and does not explain the sign; nearly all actives have a fitted effect of over 65% in size; many hits overshoot -100%
Target sequence (P80244 whole entry, looked up): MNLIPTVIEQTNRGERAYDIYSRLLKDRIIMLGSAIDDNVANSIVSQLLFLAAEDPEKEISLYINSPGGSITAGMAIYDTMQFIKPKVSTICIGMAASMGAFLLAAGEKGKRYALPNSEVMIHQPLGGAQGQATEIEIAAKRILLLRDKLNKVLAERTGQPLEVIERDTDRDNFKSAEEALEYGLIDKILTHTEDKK
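ClpP 10 microg/mL final, pH 8 Tris/KCl buffer with BSA, glycerol, Tween-20; compound pinned in; FRET-FV substrate; RT 20 min; Ex320/Em430; ΔFRET vs ADEP 5.8 microM, DMSO, no enzyme.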
gsp ag = activates gsp, the McCune-Albright syndrome mutation; gsp mutant cells, cAMP HTRF, 30 min; control for the full effect not named in the record; Potency, µM (highest dose often 76.9 µM), inactives show at the highest dose activation (cAMP increase), usual class: activators; hit rate 0.13% among 340,000; active = well fitted activation curve with a large enough effect; inconclusive = small, poorly fitted or top-dose-only effect, or another doubt; inactive = no such curve, though single readings can be large or run the other way; cell line not stated here;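 also: phosphodiesterase inhibitor Ro 20-1724 added with compounds to block cAMP breakdown; potency is read from the fitted curve at half-maximal effect; nearly all actives have a fitted effect of over 60% in size; about a fifth of the inactives were tested at one dose only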
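Cells stably selected in G418 were plated at 2000/well, grown 16-24 hr, then given compounds in DMSO with the PDE inhibitor […] (300 uM solution added) for 30 min at 37C; cAMP was read by HTRF.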
D2 agonist = agonists of human D2 dopamine receptor (beta-arrestin) | hit rate 0.084% among 360,000 | activation, % (test concentration not listed) | DiscoveRx PathHunter D2 beta-arrestin, luminescence, 90 min; 100% = 57 uM dopamine signal | P14416; in the data active = activation above about 40%; inconclusive = about 15% to 40%; inactive = below about 15%; also: compound concentration not given in the record; the text of the record calls up to 30% inactive
Target sequence (P14416 whole entry, looked up): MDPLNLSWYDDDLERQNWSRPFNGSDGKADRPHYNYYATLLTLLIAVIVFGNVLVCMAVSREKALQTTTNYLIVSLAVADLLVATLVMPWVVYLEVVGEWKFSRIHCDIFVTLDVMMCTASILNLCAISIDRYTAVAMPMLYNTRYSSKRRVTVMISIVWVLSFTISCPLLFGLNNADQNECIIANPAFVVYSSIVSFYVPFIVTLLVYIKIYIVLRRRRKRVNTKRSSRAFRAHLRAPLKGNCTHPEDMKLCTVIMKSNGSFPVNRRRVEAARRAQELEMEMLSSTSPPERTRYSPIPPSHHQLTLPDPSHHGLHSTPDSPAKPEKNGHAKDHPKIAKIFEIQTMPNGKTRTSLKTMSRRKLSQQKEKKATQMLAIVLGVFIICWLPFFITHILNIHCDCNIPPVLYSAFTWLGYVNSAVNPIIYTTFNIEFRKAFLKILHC
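Agonist mode: compounds alone added to overnight-plated D2 PathHunter cells for 90 min at 37 C, with 57 uM final dopamine (EC100) defining full response. Beta-arrestin recruitment detected by chemiluminescent reagent, read after 1 h at ambient temperature.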
gsp antagonist = antagonizes gsp, the McCune-Albright syndrome mutation; Potency, µM (doses to about 76.9 µM), for inactives: top-dose activity change, negative = inhibition, hits mostly inhibitors; gsp-mutant cells, cAMP HTRF, 30 min; control for the full effect not named in the record; hit rate 0.4% among 340,000; active = falling curve of any shape with a large fitted effect; inconclusive = falling curve, mostly with a smaller effect; inactive = flat or rising curve; cell line not stated here;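 also: intracellular cAMP measured with PDE inhibitor Ro 20-1724 present during compound exposure; potency is read from the fitted curve at half-maximal effect; % is scaled to controls: 0 for no effect and ±100 for the full control effect; nearly all actives have a fitted effect of over 65% in size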
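G418-selected cells were plated in DMEM/10% FBS for 16-24 h at 37C, then treated with compounds plus the PDE inhibitor […] (300 uM solution added) for 30 min at 37C. Intracellular cAMP was measured by HTRF after 30 min lysis at room temperature.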
Menin MLL FP FL = inhibitors of human menin-MLL interaction, wild-type MLL peptide. Fluorescence polarization, fluorescein-MLL peptide displacement from menin. FP activity change, % at 61.4 µM. AID 1766. 290,000 tested, under 10 active; inconclusive = falling polarisation curve, or a change in total fluorescence; inactive = total fluorescence flat and polarisation flat or rising; no compound was filed as active; the % refers to the polarisation; negative = inhibition;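 also: % of control where 0% means no effect; inhibitors lower the polarisation; unlabelled MLL peptide was the positive control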
Active calls of the source: *; u = inconclusive; x = not tested or not shown; [ ] = another dose, or the depositor's remark.

SMILES	PINK1 expr mod	Sfp inh	ClpP mod	gsp ag	D2 agonist	gsp antagonist	Menin MLL FP FL
Cc1ccc(Sc2c([N+](=O)[O-])c(=O)n(C)c3ccccc23)cc1	1.0%	10%	-1.2%	7%	-2.0	u	2.6
COc1ccccc1NC(=O)c1ccc2c(c1)N(CC(=O)NC(C)C)C(=O)C(C)(C)O2	0.8%	6%	x	21%[15.4 µM]	-1.3	u	-0.1
O=C(O)COc1ccccc1C1C2C(=O)N(c3ccccc3)C(=O)C2ON1c1ccccc1 (configuration not stated)	2.8%	7%	-25%	14%	0.5	-1%	-0.1
CC(C)C[C@H]1CNC(=S)N1C[C@H]1CCCN1C[C@H](Cc1ccc(O)cc1)N1C[C@H](CC(C)C)N(CC2CCCCCC2)C1=S	10%	x	-1.5%	x	3.2	x	x
C[C@H](N)C(=O)OCc1ccc([N+](=O)[O-])cc1	0.3%	17%	-1.2%	6%	-0.7	-1%	4.6
O=C(Cn1cc(C(=O)c2cccs2)c2ccccc21)NC1CCCCC1	13%[38.3 µM]	3%	-4.4%	u	-1.1	-20%	-1.4
COc1ccccc1CNC(=O)COC(=O)CCC(=O)c1cccs1	2.8%	7%	x	0%[15.4 µM]	-1.3	5%	0.3
CN(C(=O)c1ccc(NC(=O)C2CCCN(C(=O)OC(C)(C)C)C2)cc1)C1CCCCC1 (configuration not stated)	0.6%	x	1.4%	0%	-3.0	-4%	x
COc1cccc(C(C(=O)NC2CCCC2)N(Cc2ccccc2OC)C(=O)c2ccco2)c1 (configuration not stated)	-0.5%	1%	1.7%	10%	-5.5	0%	0.3
CCOC(=O)CN1N=C(/C=C/c2ccc(OC)cc2)CCC1=O	0.2%	3%	-9.8%	11%	0.0	5%	5.5
COc1ccc(NC(=S)NCC2CCCO2)c(OC)c1 (configuration not stated)	0.4%	7%	-1.0%	6%	-2.8	11%	4.1
O=c1c2c3c(sc2ncn1/N=C/c1ccco1)CCCC3	4.7%[38.3 µM]	13%	-1.7%	0%	-1.4	-19%	7.3
Cc1c([N+](=O)[O-])c(C(=O)Sc2ccc(Br)cc2)nn1C	-1.3%	-2%	x	9%[15.4 µM]	0.8	14%	0.6
O=C(CCC(=O)Nc1ccccc1Cl)NNC(=O)Nc1cccc([N+](=O)[O-])c1	0.2%	-1%	-1.7%	-43%[inhibitor]	-2.8	6%	-0.5
Cc1cccc2c(C(=O)N3CCCCC3)cc(-c3ccccc3)nc12	1.2%	-6%	x	-19%[15.4 µM]	-4.4	x	-2.5
CC(N)c1csc(NC(=O)Nc2cccc(C(F)(F)F)c2)n1 (configuration not stated)	u	x	0.7%	x	-1.4	x	x
Cc1ccc(Cl)cc1N1CCN(CC(O)COCc2ccco2)CC1 (configuration not stated)	9.2%	u	1.8%	5%	-0.4	12%	-0.5
C=CCOc1c(Br)cc(CNc2nccs2)cc1OC	0.7%	-9%	-0.2%	-20%	-1.7	-5%	1.1
CN(C(=O)c1cccc(C#N)c1)c1nnc(-c2ccccn2)s1	-1.2%	6%	278%	13%	1.1	18%	5.8
COc1ccc(/C=N/N(C)C2=NCCN2)c(OC)c1OC	0.0%	2%	-4.2%	-3%	-3.8	6%	-16
CCN(CC(=O)Nc1c(F)cccc1F)C(=O)c1nn(C)c(=O)c2ccccc12	2.2%	x	-0.3%	-7%	-7.3	0%	x
COc1ccccc1OCC(=O)N1CCCCCC1	0.1%	x	-2.7%	18%	-6.1	x	x
CC(=O)c1ccc(Nc2cc(C)nc3ccccc23)cc1	0.5%	18%	x	-32%	1.2	0%	-6.6
CCc1nc2ccc(C(=O)NCc3ccc4c(c3)OCO4)cn2c1N(C)Cc1ccc(OC)cc1	0.4%	x	-12%	x	-2.5	x	x
CCc1nnc(NC(=O)c2ccc(Br)c(S(=O)(=O)N3CCOCC3)c2)s1	1.9%	-5%	x	-42%[15.4 µM]	-2.0	-2%	0.2
COc1ccc(C(c2c(C)[nH]n(C(N)=S)c2=O)C(C#N)C#N)cc1 (configuration not stated)	11%	u	0.2%	-29%	-5.7	7%	-2.4
CCCCn1nnnc1C(CCc1ccccc1)N1CCN(C/C=C/c2ccccc2)CC1 (configuration not stated)	4.7%	x	-3.5%	x	-3.6	x	x
Cc1ccc(NC(=O)CSc2nc3c(c(=O)[nH]2)CCC3)c(C)c1	-0.5%	16%	1.4%	u	-2.1	-12%	x
COc1cc2cc(CN(CCc3ccccc3C)C(=S)NCCCN(C)C)c(=O)[nH]c2cc1OC	-3.8%	-16%	14µM*	11%	-4.9	5%	-1.2
Cc1nonc1CC(=O)N1CCCC(C(=O)c2cccc(C(F)(F)F)c2)C1 (configuration not stated)	-0.3%	8%	0.8%	34%	-0.8	-2%	2.2
OC(COc1ccccc1)CN1CCN(c2cccc(Cl)c2)CC1 (configuration not stated)	12%	x	-1.3%	4%	2.9	2%	x
COc1cccc(C(=O)OCc2ccccc2C#N)c1O	-1.6%	-21%	-1.5%	-3%	1.1	5%	6.7
Cc1ccc(CNC(=O)C2CN(S(C)(=O)=O)c3cc(Cl)ccc3O2)cc1 (configuration not stated)	-1.4%	12%	x	17%[15.4 µM]	1.2	-6%	-1.6
COc1ccc(/C=C2\SC(=S)N(CCC(=O)NCCCn3ccnc3)C2=O)cc1	2.9%	7%	0.3%	-3%	3.7	5%	x
CCOc1ccc2nnnn2n1	-0.8%	21%	-1.9%	2%	-4.3	-6%	-0.2
O=C1c2cccc3cccc(c23)C(=O)N1CCCN(C(=O)c1cccs1)c1cccc(F)c1	1.5%	7%	-11%	-13%	-3.0	5%	0.3
COc1ccc(Cl)cc1NS(=O)(=O)c1cccc(C(=O)NCC2CCCO2)c1 (configuration not stated)	-0.8%	13%	0.7%	-4%[15.4 µM]	-2.5	4%	x
Cc1cc(C)cc(NC(=O)c2cc(C)nn2C)c1	-1.3%	25%	1.0%	4%[15.4 µM]	-5.3	18%	3.3
CCN(Cc1ccncc1)Cc1ccc(OC)cc1OC	-1.0%	-6%	-3.9%	5%	-3.5	-6%	-0.4
Cc1ccc2c(c1)NCCO2	-1.7%[38.3 µM]	-14%	-2.1%	-60%[inhibitor]	1.3	0%	0.8
Cc1cc(C)nc(CCNC(=O)c2cc(COc3c(C)cccc3C)on2)n1	1.4%	5%	0.6%	u	-0.3	0%	x
Cc1cc([N+](=O)[O-])cc(/C=N\NC(=O)C2COc3ccccc3O2)c1O (configuration not stated)	1.7%	20%	x	-1%[15.4 µM]	-4.8	-7%	0.5
COc1ccc(C(=O)NC(=S)N2CCOCC2)cc1OC	-0.1%	u	-2.1%	u	-3.7	10%	-5.1
COc1ccc(NC(=O)CN(C)C(=O)c2cccc3ccccc23)cc1	0.0%	x	-2.4%	0%	-2.1	16%	x
COC(=O)c1ccc(CNC(=O)C23CC4CC(CC(C4)C2)C3)cc1	1.6%	8%	x	-22%[15.4 µM]	-1.7	8%	5.5
CC(=O)N1CCC(c2c[nH]c3ccccc23)CC1	0.1%	10%	x	-6%[15.4 µM]	-1.0	9%	-3.6
O=C(O)C1CSC(c2ccccc2Cl)N1C(=O)c1ccc(Cl)cc1 (configuration not stated)	2.4%	20%	-3.1%	-1%	-1.5	-4%	5.0
CC(=O)Nc1ccc(S(=O)(=O)N(C)CC(=O)OC(C)C(=O)NC2CCCC2)cc1 (configuration not stated)	1.8%	12%	-18%	0%[15.4 µM]	-1.0	-6%	x
CCOC(=O)C1=C(SCC)c2cc3c(n2C1=O)CCCC3	0.9%	-24%	0.3%	0%	-5.3	-23%	-0.3
O=S(=O)(Nc1ccccn1)c1cc(Cl)ccc1Cl	3.5%	19%	-14%	0%	-2.7	-21%	1.6
COc1ccc(NC(=O)c2ccc(-c3ccc(OC)cc3)s2)cc1	1.1%	7%	-0.7%	19%	1.6	-3%	-3.0
CCOCCCN(C)C1CCN(C(=O)c2oc3ccccc3c2NC(=O)Cc2cccc([N+](=O)[O-])c2)CC1	-0.8%	11%	-5.1%	41%	-8.8	0%	x
O=CN1CCN(C2CC(=O)N(c3ccc4c(c3)OCO4)C2=O)CC1 (configuration not stated)	-1.1%	-21%	2.3%	5%	-2.9	7%	1.8
COc1cc(NC(=O)C/C(C)=N/NC(=O)c2cccs2)c(OC)cc1Cl	-0.7%	17%	x	11%	5.1	-13%	-2.1
Fc1ccc(-c2nnc(Cc3nnc(-c4ccc(F)cc4)o3)o2)cc1	u	11%	-0.3%	-15%	-1.4	0%	3.5
CC(=O)Nc1cc(O)cc(O)c1	5.3%	14%	x	1%[15.4 µM]	2.9	8%	4.1
COc1ccccc1NC(=O)Cc1nn(C)c(=O)c2ccccc12	-0.2%	6%	-2.6%	14%	0.0	u	1.3
Oc1ccc(/C=N/Nc2ncc(Br)cn2)c(O)c1	-1.8%	7%	-2.9%	9%	-6.5	4%	3.8
c1ccc2cc(OCCN3CCCC3)ccc2c1	-1.9%[38.3 µM]	-3%	-4.6%	-18%	-2.6	8%	0.5
CCN(CC)S(=O)(=O)c1ccc(OC)c(NC(=O)COc2ccccc2[N+](=O)[O-])c1	3.2%	16%	0.0%	1%	1.1	10%	6.0
C=CCNC(=O)N[C@@H](Cc1ccccc1)C(=O)OC	-0.6%	4%	x	-4%[15.4 µM]	-2.0	6%	0.7
C[C@@H]1C[C@H](Nc2ccccc2)c2ccccc2N1C(=O)c1cccnc1	7.6%	3%	-2.7%	-44%[inhibitor]	1.0	2%	-7.2

Three entries out of the list above, ordered by their value in gsp antagonist, highest first:
| structure | gsp antagonist |
| --- | --- |
| c1ccc2cc(OCCN3CCCC3)ccc2c1 | 8% |
| CCOCCCN(C)C1CCN(C(=O)c2oc3ccccc3c2NC(=O)Cc2cccc([N+](=O)[O-])c2)CC1 | 0% |
| COc1cc(NC(=O)C/C(C)=N/NC(=O)c2cccs2)c(OC)cc1Cl | -13% |
